# Screens: PubChem BioAssay, Johns Hopkins Ion Channel Center
# KCNQ2 block = KCNQ2 potassium channel inhibitors, primary screen, cell-based, CHO-K1, FluxOR thallium flux, B-score (AID 2156) | 20 min; hits give low values; only compounds with negative scores are shown here; some inactives read as strong as hits | O88943 | B-score at 10 µM | 1.1% of 310,000 active;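 active = fluorescence ratio B-score at most minus 3 library SDs, with starting brightness B-score within 2 library SDs, cut at about -5.5 in these data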
# Target sequence (O88943 whole entry, looked up): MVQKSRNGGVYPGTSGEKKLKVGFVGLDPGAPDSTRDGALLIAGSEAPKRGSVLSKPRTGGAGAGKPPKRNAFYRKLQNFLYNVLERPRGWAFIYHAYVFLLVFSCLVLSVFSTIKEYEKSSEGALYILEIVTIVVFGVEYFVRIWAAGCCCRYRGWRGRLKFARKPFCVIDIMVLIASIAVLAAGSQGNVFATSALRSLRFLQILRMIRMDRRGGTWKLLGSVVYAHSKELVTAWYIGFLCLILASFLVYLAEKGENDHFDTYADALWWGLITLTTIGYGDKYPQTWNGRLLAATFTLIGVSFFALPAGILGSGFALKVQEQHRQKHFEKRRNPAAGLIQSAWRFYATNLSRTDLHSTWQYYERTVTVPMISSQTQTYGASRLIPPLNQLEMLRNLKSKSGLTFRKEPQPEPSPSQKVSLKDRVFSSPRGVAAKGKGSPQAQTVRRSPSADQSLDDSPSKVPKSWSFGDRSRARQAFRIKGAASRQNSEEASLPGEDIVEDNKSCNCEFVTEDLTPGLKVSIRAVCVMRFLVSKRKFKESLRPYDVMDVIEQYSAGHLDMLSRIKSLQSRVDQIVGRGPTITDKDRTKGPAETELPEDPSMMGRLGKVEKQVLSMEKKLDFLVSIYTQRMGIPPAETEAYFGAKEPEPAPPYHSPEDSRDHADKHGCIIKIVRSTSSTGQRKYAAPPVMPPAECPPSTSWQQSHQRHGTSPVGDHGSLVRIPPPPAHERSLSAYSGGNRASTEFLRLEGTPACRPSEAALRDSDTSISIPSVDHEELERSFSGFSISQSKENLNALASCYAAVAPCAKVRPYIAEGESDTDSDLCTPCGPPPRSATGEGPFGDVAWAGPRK
# KCNQ2 block baseline = further read-out of KCNQ2 block, marked with its call; B-score; measured here: initial fluorescence intensity artifact check;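 brightness before thallium and not channel activity; 0 = typical well and far values either way flag optical interference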
# Starred values were filed as active, the others as inactive; i = inactive.
SMILES,KCNQ2 block,KCNQ2 block baseline
O=C1CCCN1CCCNc1nc2c(S(=O)(=O)c3ccccc3)nnn2c2ccc(Cl)cc12,i,-0.64
CCOc1ccc(S(=O)(=O)N(CC(=O)NCc2cccnc2)c2ccc(F)cc2)cc1,i,-2.77
O=C(CCN1C(=O)/C(=C/c2ccccc2)SC1=S)NC1CCS(=O)(=O)C1 (configuration not stated),i,2.74
CS(=O)(=O)c1ncc(Cl)c(C(=O)Nc2ccc3ccccc3c2)n1,i,-1.56
O=C(Cc1ccccc1)NCC(=O)OCC(=O)c1ccc(Cl)cc1,i,1.05
CCn1c(Cc2ccccc2)nnc1SCC(=O)Nc1nc(C)cs1,i,2.02
O=C(c1ccc2c(c1)OCCO2)N(c1ccccn1)C1CCCCC1,i,-0.54
Cc1ccc(CC(=O)N(Cc2ccccc2)c2ccccn2)cc1,i,2.2
CCN1CCN(CCCNC(=O)c2ccc(/C=C3/Sc4ccccc4N(Cc4ccccc4F)C3=O)cc2)CC1,i,-2.09
COc1ccc(-c2noc(C3CCCN(S(=O)(=O)c4cccc(Cl)c4C)C3)n2)cc1OC (configuration not stated),i,0.57
CCN(C(=O)Cn1c(=O)n(Cc2ccccc2)c(=O)c2ccccc21)c1cccc(C)c1,i,-0.55
CC(C)CNC(=O)C1CCN(c2ccc(S(=O)(=O)N3CCOCC3)cc2)CC1,i,-1.27
CC1(C)CCCN(C(=O)N2c3ccccc3Sc3ccccc32)C1,-8.59*,0.96*
CCN(CC)c1ccc(/C=N\N2CCN(Cc3ccc(C)cc3)CC2)cc1,i,0.77
CC1(C)Cc2c(sc3nc(=S)[nH]c(N)c23)CO1,i,0.11
COc1ccc2c(C)c(CC(=O)N3CCN(C(=O)C4COc5ccccc5O4)CC3)c(=O)oc2c1C (configuration not stated),i,-0.65
COc1c(Cl)cc(Cl)cc1C(=O)n1nc(C)cc1C,i,-1.88
CCOc1cc(CNn2nnnc2N)ccc1OCC(=O)NC(C)(C)C,i,-0.8
O=C(NCc1ccccc1Cl)c1ccccc1CCc1ccccc1,-5.56*,-2.87*
CC1(C)CC(NC(=O)c2ccc(-c3ccc([N+](=O)[O-])cc3)o2)CC(C)(C)N1,i,-1.94
Cc1nc(C(F)(F)F)ccc1C(=O)Nc1ccccc1F,i,0.53
COc1cc(-c2nnc(SCC(=O)NC3CCS(=O)(=O)C3)o2)cc(OC)c1OC (configuration not stated),i,3.4
O=Cc1ccccc1OCCOc1ccc([N+](=O)[O-])cc1,i,1.34
Cc1ccc2c(COC(=O)c3ccccc3F)cc(=O)oc2c1,i,2.09
Cc1cc(C)cc(N(CC(=O)NCc2ccc(F)cc2)C(=O)CCC(=O)Nc2ccccn2)c1,i,-0.92
O=C(c1ccccc1)c1sc(N2CCOCC2)nc1-c1ccccc1,i,-0.14
CCCCOP(=O)(c1ccc(N(C)C)cc1)C(O)c1ccccc1F (configuration not stated),i,-0.39
O=C(CSc1nc2ccccc2[nH]1)Nc1cc(C(F)(F)F)ccc1N1CCOCC1,i,-1.11
Cc1cc(C)nc(SCc2nnc(SCc3ccccc3Cl)o2)n1,i,-0.43
CN(C)/C=C/C(=O)c1ccc2noc(-c3ccccc3)c2c1,i,0.12

# Shown with two lines to a compound: entries from further up.
# Results follow in this order: KCNQ2 block | KCNQ2 block baseline
CCN(CC)c1ccc(/C=N\N2CCN(Cc3ccc(C)cc3)CC2)cc1
  i | 0.77
CC1(C)Cc2c(sc3nc(=S)[nH]c(N)c23)CO1
  i | 0.11
COc1ccc2c(C)c(CC(=O)N3CCN(C(=O)C4COc5ccccc5O4)CC3)c(=O)oc2c1C (configuration not stated)
  i | -0.65
COc1c(Cl)cc(Cl)cc1C(=O)n1nc(C)cc1C
  i | -1.88
CCOc1cc(CNn2nnnc2N)ccc1OCC(=O)NC(C)(C)C
  i | -0.8
O=C(NCc1ccccc1Cl)c1ccccc1CCc1ccccc1
  -5.56* | -2.87*
CC1(C)CC(NC(=O)c2ccc(-c3ccc([N+](=O)[O-])cc3)o2)CC(C)(C)N1
  i | -1.94
Cc1nc(C(F)(F)F)ccc1C(=O)Nc1ccccc1F
  i | 0.53
COc1cc(-c2nnc(SCC(=O)NC3CCS(=O)(=O)C3)o2)cc(OC)c1OC (configuration not stated)
  i | 3.4
O=Cc1ccccc1OCCOc1ccc([N+](=O)[O-])cc1
  i | 1.34
Cc1ccc2c(COC(=O)c3ccccc3F)cc(=O)oc2c1
  i | 2.09
Cc1cc(C)cc(N(CC(=O)NCc2ccc(F)cc2)C(=O)CCC(=O)Nc2ccccn2)c1
  i | -0.92
O=C(c1ccccc1)c1sc(N2CCOCC2)nc1-c1ccccc1
  i | -0.14
CCCCOP(=O)(c1ccc(N(C)C)cc1)C(O)c1ccccc1F (configuration not stated)
  i | -0.39

# Next part:
SMILES,KCNQ2 block,KCNQ2 block baseline
CCC(=O)Nc1ccc(-c2nnc(SCc3ccc(C(=O)Nc4nccs4)cc3)n2CC)cc1,i,0.03
O=C(Nc1ccc(-c2nc3ccccc3o2)cc1)c1ccc2c(c1)OCO2,i,0.3
COc1ccc(CC(=O)NCc2ccc3c(c2)cc(C)n3C)cc1,i,1.24
Oc1ccc2ccccc2c1C=NC12CN3CCN(CN(C3)C1)C2,i,0.29
Cc1ccc(C(=O)N2CC(C(=O)O)C2)cc1,i,-0.06
COc1ccc(Br)cc1S(=O)(=O)n1ccnc1,i,-0.23
COc1cccc(NC(=O)[C@H](Cc2c[nH]c3ccccc23)NC(=O)[C@@H]2Cc3ccccc3CN2)c1,i,0.96
CC(=O)Nc1ccc(S(=O)(=O)N2CCN(C(=O)c3ccco3)CC2)cc1,i,0.66
COc1ccc(Nc2cc(C(=O)N3CCc4ccccc4C3)c3ccccc3n2)c(OC)c1,-7.96*,0.67*
CN(C)S(=O)(=O)c1cc(NC(=O)CN2CCNC(=O)C2)ccc1Cl,i,0.16
O=C(CSC1=NCCS1)NCc1ccco1,i,1.71
CCS(=O)(=O)c1ccc(O)c(NC(=O)/C=C/c2ccccc2)c1,i,-0.04
CCN(CC)c1nc(NN)nc(Nc2ccc(C)c(Cl)c2)n1,i,-0.4
O=C(COC(=O)c1cc(S(=O)(=O)N2CCOCC2)ccc1Cl)NCc1ccco1,i,-0.02
COc1ccc(C(CNC(=O)CN2C(=O)NC3(CC(C)CC(C)(C)C3)C2=O)N2CCOCC2)cc1 (configuration not stated),i,0.83
O=C(Nc1ccc([N+](=O)[O-])cn1)c1cc(-c2cccc(Cl)c2)nc2ccccc12,-5.58*,-0.15*
Cc1ccc(NC(=O)/C(Cl)=C\c2ccccc2)cc1,i,1.22
Cc1ccc(-c2cc(C(F)(F)F)nc(SCC(=O)c3cccc([N+](=O)[O-])c3)n2)cc1,i,-0.04
N#CCCn1cc(C(N)=O)c(-c2ccc3ccccc3c2)n1,i,2.27
O=C(COc1ccc2c(-c3ccccc3)cc(=O)oc2c1)Nc1ccc(CN2CCOCC2)cc1,i,0.5
COc1ccccc1-c1cc(C(=O)N2CCOCC2)no1,i,0.89
CCOc1cc(C(=O)NC(C)Cc2cccs2)cc(OCC)c1OCC (configuration not stated),i,1.13
C=C(C)C1CC=C(C)/C(=N/NC(=O)COc2ccccc2C)C1 (configuration not stated),i,0.02
O=C(CN1CCN(Cc2ccccc2F)CC1)Nc1ccccc1Cl,i,0.19
CCOC(=O)/C(C#N)=C(/C)c1ccc(OC)cc1,i,-1.73
O=[N+]([O-])c1ccc(C(=S)N2CCCC2)cc1,i,-1.53
OCCNc1nc2ccccc2n1CCN1CCCCC1,i,-0.04
Cc1ccc(CNc2cc(C(=O)O)ccc2Cl)s1,i,0.08
Cc1cc2nc(SCC(=O)Nc3nonc3C)c3c(c2cc1C)CCCC3,i,0.1
Cc1c(C)c2ccc(OCC(=O)NCCc3c[nH]c4ccccc34)c(C)c2oc1=O,i,-0.27
CSc1ccccc1N=Cc1nc(-c2ccccc2)oc1O,i,0.74
c1ccc(-c2cnc(CSc3ncnc4sccc34)o2)cc1,i,1.11
Cc1noc(C)c1S(=O)(=O)NC1CCCc2ccccc21 (configuration not stated),i,0.23
CC1(C(=O)NCCOc2ccccc2Cl)CC1(Cl)Cl (configuration not stated),i,0.58
Cc1ccc(-c2cc(C(F)F)nc(NCC3CCCO3)n2)cc1 (configuration not stated),i,1.9
CCN1CCN(S(=O)(=O)c2ccc(Br)s2)CC1,i,1.97
CCOC(=O)C1C(=O)CC(C)(O)C(C(=O)OCC)C1c1ccc(OCC)cc1 (configuration not stated),i,-0.6
COc1ccc(Cl)cc1NC(=O)CCNC(=O)OCc1ccccc1,i,0.16
O=C(NCCc1ccccc1)N1c2ccccc2Sc2ccccc21,i,-1.87
Cc1ccc2c(c1)c(C)c(C)n2CC(O)Cn1nnc2ccccc21 (configuration not stated),i,-0.15
O=C(NCCS(=O)(=O)N1CCN(c2ccccc2F)CC1)c1c(F)cccc1F,i,-0.22
Cc1cc(C)c(NC(=O)CCCCCNC2CCCCC2)c(C)c1,i,1.81
C#CCOCCOCCOCCNc1nc(N2CCN(C(=O)[C@H]([C@@H](C)CC)n3cc([C@@H](N)Cc4ccc(O)cc4)nn3)CC2)nc(N2CCN(C(=O)[C@H](Cc3ccc(O)cc3)n3cc([C@@H](N)CC(C)C)nn3)CC2)n1,i,0.3
O=C(Nc1ccccc1NC(=O)c1c(F)c(F)c(F)c(F)c1F)c1c(F)c(F)c(F)c(F)c1F,i,-0.11
Cc1ccc(N2C(=O)CC(Cc3cccc(C)c3)C2=O)cc1 (configuration not stated),i,1.72
CCN1C(=O)C(CC(=O)Nc2ccccc2Cl)N(NC(=O)c2cccc(F)c2)C1=S (configuration not stated),i,-1.08
CCOC(=O)C1CCCCN1Cc1ccccc1C(F)(F)F (configuration not stated),i,-3
CC(C)NC(=O)C1=NN(c2ccccc2)C(=O)CC1,i,0.03
COc1ccc(OC)c(NC(=O)CN(C)S(=O)(=O)c2ccc3nc(C)sc3c2)c1,i,-1.13
O=C(Cn1ncc2c([nH]c3ccccc32)c1=O)NCCc1ccccc1,i,1.09

# Remaining list, next part.
SMILES,KCNQ2 block,KCNQ2 block baseline
COC(=O)c1[nH]c(=O)c2ccccc2c1OCc1ccccc1,i,0.29
COc1ccccc1NC(=O)c1cc(N2C(=O)C3C4CCC(C4)C3C2=O)ccc1Cl (configuration not stated),i,0.45
COc1ccc2c(-c3ccccc3)cc(=S)[nH]c2c1,i,0.67
COc1cc(C)nc(N2CCC(C(=O)NCC3CCCO3)CC2)n1 (configuration not stated),i,0.36
CCOC(=O)CSc1nc2cc(S(=O)(=O)Nc3ccccc3OC)ccc2o1,i,-0.57
CC(C)(O)C#Cc1ccc(C(=O)NCCC(=O)O)s1,i,0.18
CC(C)(C)c1cc(N2CCOCC2)n2ncc(-c3ccc(Cl)cc3)c2n1,i,-0.06
OCCC1CN(Cc2ccc3nonc3c2)CCN1Cc1ccsc1 (configuration not stated),i,-1.73
Cc1ccc(NC(=O)COC(=O)/C=C/c2c(C)nn(-c3ccc(F)cc3)c2Cl)cc1F,i,0.88
COC(=O)CC1COc2ccccc2N1C(=O)/C=C/c1ccccc1 (configuration not stated),i,0.11
CC(=O)CSc1nnc2c3ccccc3nc(C(C)(C)C)n12,i,-0.07
CCCCn1c(N)c(N(CC)C(=O)c2ccc(Cl)c(Cl)c2)c(=O)[nH]c1=O,i,-0.32
CC1(C)CC(C(=O)Nc2nccs2)CCO1 (configuration not stated),i,0.12
CC(C)CCNC(=O)c1ccc(CSCc2cccc(F)c2)o1,i,1.48
Cc1ccc(S(=O)(=O)N2CCN(S(=O)(=O)N(C)C)CC2)c(C)c1,i,-1.88
Nn1c(Cc2cccc3ccccc23)nnc1SCc1ccccc1,i,-0.05
CCN1C(=O)/C(=C2/C=CC=CN2C)SC1=S,i,4.38
C/C(=N\NC(=O)c1nn(C)c(C)c1Br)c1ccc(NC(=O)c2ccoc2C)cc1,i,-0.16
Cc1ccc(C(=O)N2CCC3(CC2)NCCc2[nH]cnc23)cc1,i,3.66
O=C(CSc1n[nH]c(-c2cccs2)n1)N1CCN(S(=O)(=O)c2ccccc2)CC1,i,2.49
COC(=O)c1nnc(-c2ccccc2)c(-c2ccccc2)n1,i,1.13
Cc1ccc(S(=O)(=O)n2nc(OC(=O)c3ccccc3F)cc2N)cc1,i,-0.82
CCn1cc(S(=O)(=O)CC(=O)N2CCc3ccccc32)c2ccccc21,i,2.1
COC(=O)[C@@H](NC(=O)NC1CCCc2ccccc21)C(C)C (some centres not stated),-7.18*,1.85*
Cc1ccc(NC(=O)NNC(=O)c2sccc2-n2cccc2)cc1,i,0.55
CC(C)(C)c1ccc(C(=O)Nc2ccccc2NC(=O)c2ccco2)cc1,i,-1.35
COc1ccc(CNc2ccc3c(c2)ncn3C)cc1OC,i,-1.03
Cc1c(Cl)cccc1NC(=S)NCC(O)c1ccccc1 (configuration not stated),i,1.03
COc1ccc(CNC(=O)C2CCN(C(=O)c3sccc3-n3cccc3)CC2)cc1,i,-0.26
CCc1cc(=O)oc2cc(C)cc(OCC(=O)NC(Cc3c[nH]c4ccc(O)cc34)C(=O)O)c12 (configuration not stated),i,0.52
Cc1ccc(C2=N/C(=C/c3cccs3)C(=O)N2Nc2ccccc2)cc1,i,-0.79
Cc1ccc(NC(=O)CCC(=O)N/N=C/c2cccnc2)cc1,i,0.84
CCc1cccc(CC)c1NC(=O)COC(=O)CC1c2ccccc2CCN1S(=O)(=O)c1ccc(F)cc1 (configuration not stated),i,-0.24
COc1ccc(CCNC(=O)c2c[nH]c3ccccc3c2=O)cc1OC,i,-0.06
CCNC(=O)COC(=O)CNC(=O)c1cc(Cl)cc([N+](=O)[O-])c1,i,0.53
COc1ccc(NC(=O)CSc2ccc3nnc(CCNC(=O)c4ccccc4)n3n2)cc1,i,1.61
CC(/C=N/NC(=O)C(O)c1ccccc1)=C\c1ccccc1 (configuration not stated),i,-0.29
COCCNC(=S)N1CCC(NC(=O)C23CC4CC(CC(C4)C2)C3)CC1,i,-0.35
Cc1ccc(O)c(N=Cc2cccs2)c1,i,1.6
Cc1ccc(S(=O)(=O)N/N=C/c2c[nH]c3ccccc23)cc1,i,-0.9
Cc1cn(CC2COC(C)(C)O2)c(=O)[nH]c1=O (configuration not stated),i,-1.06

# These rows are one share of the data (hit frequency here may not be typical).
